Screens (PubChem BioAssay)
StopGo FLuc: Primary qHTS Assay for Foot and Mouth Disease Virus Antivirals against NCGC Sytravon and CBC Compound Libraries: Firefly Luciferase Signal | HEK cells with a luciferase reporter of 2A StopGo recoding | Potency, µM (titrated, usually from 57.5 µM), inactives show top-dose signal change, negative = less light | actives 0.23% (n = 120,000) | AID 1745856, 2022; active = well fitted falling curve with a large enough effect; inconclusive = small, poorly fitted or top-dose-only effect; inactive = no such curve, though single readings can be large or run the other way; further: nearly all actives have a fitted effect of over 60% in size; overnight with compound
StopGo RLuc: Primary qHTS Assay for Foot and Mouth Disease Virus Antivirals against NCGC Sytravon and CBC Compound Libraries: Renilla Luciferase Signal | HEK cells with a luciferase reporter of 2A StopGo recoding | Potency, µM (highest dose often 57.5 µM), for inactives: top-dose signal change, negative = less light | actives 0.32% (n = 120,000) | AID 1745857, 2022; active means well fitted falling curve with a large enough effect; inconclusive means small, poorly fitted or top-dose-only effect; inactive means no such curve, though single readings can be large or run the other way; further: nearly all actives have a fitted effect of over 55% in size; overnight with compound
An asterisk follows results filed as active; u = inconclusive; [ ] = another dose, or the depositor's remark. On the % scale 0 is the no-effect control and ±100 the full control effect; potency means the concentration at half of the fitted maximal effect. Not all compounds are listed; count on the stated rates, not on these rows.

compound,StopGo FLuc,StopGo RLuc
CCN1C(=O)NC(c2c(F)cccc2Cl)C(C(=O)N2CCOCC2)=C1C (centres undefined),-4%,-11%
Cc1cc(C)c2c(c1)C(=O)/C(=C\c1ccccc1C)CC2,170%[activator],-11%
CN(Cc1cccc(Cl)c1Cl)C(=O)c1ccc(NS(C)(=O)=O)cc1,3%,46%[activator]
Cn1c(=O)c(C(=O)Nc2ccc(Cl)c(C(F)(F)F)c2)nc2ccccc21,0%,8%
O=C(NCc1ccccc1Cl)c1ccc(CSCc2ccccc2Cl)o1,-15%,26%
NC(=S)N/N=C/c1ccc2ccccc2n1,203%[activator],24%
O=c1[nH]c(SCc2ccc(Br)cc2)nc2c1CCCC2,4%,3%
CN(C)CCNC(=O)CCC(=O)O,0%,2%
Cn1nc(C(F)(F)F)c(Cl)c1C(=O)NC1CCCC1,15%,-5%
CN(CCCc1[nH]nc(N)c1C#N)c1nc(-c2ccccc2)nc2ccccc12,55%[activator],205%[activator]
CCOc1ccc2ccccc2c1CNCc1ccco1,-7%,-10%
CC(C)c1ccc(NC(=O)CN2C(=O)C(c3ccccc3)=NC23CCCCC3)cc1,-12%,-10%
COc1ccccc1C(=O)Nc1ccc2oc(-c3ccc(Cl)cc3)nc2c1,40%[activator],7%
COc1cccc(-c2n[nH]c3c2C(c2cccc(O)c2)N(C)C3=O)c1 (centres undefined),11%,35%[activator]
CCc1nnc(NC(=O)CSc2nc3c([nH]c4ccccc43)c(=O)n2-c2ccc(F)cc2)s1,u,-15%
COc1ccc2[nH]cc(C(C(=O)O)N3CCCC3)c2c1 (centres undefined),1%,-3%
O=C(c1cc(-c2ccco2)nc2ccccc12)N1CCCCCC1,9%,43%[activator]
Nc1c(C(=O)NCc2ccc(Cl)cc2)sc2nc(-c3ccc(F)cc3)ccc12,54%[activator],12%
O=C(Nc1ccc2c(c1)OCCCO2)c1ccccc1SCc1ccsc1,152%[activator],71%[activator]
O=C1OC(C(=O)Nc2cccc3ncccc23)Cc2ccccc21 (centres undefined),9%,-3%
CCOC(=O)CCc1c(C)c(C#N)c2nc3ccccc3n2c1-n1ccnc1,-2%,-14%
CCOc1ccc(-c2cc3c(=O)n(CC(=O)NCc4ccc(F)cc4)ccn3n2)cc1,79%[activator],-9%
CCCN(C(=O)COc1cc(=O)n(CC)c2ccccc12)c1ccc(C(C)C)cc1,-21%,-9%
Cc1cc(NC(=O)c2ccc(F)cc2F)n(CCC#N)n1,-4%,-13%

Single records (already shown). Order of screens: StopGo FLuc	StopGo RLuc
Results for Cn1nc(C(F)(F)F)c(Cl)c1C(=O)NC1CCCC1 = 15%	-5%
Results for COc1ccc2[nH]cc(C(C(=O)O)N3CCCC3)c2c1 (centres undefined) = 1%	-3%

Carrying on:
compound,StopGo FLuc,StopGo RLuc
COc1cccc(CNC(=O)c2ccc3c(c2)N(C)C(=O)C2CCCCN32)c1 (centres undefined),66%[activator],101%[activator]
N#CC(C(=O)CC1CCCCC1)C(=O)Nc1ccccc1Cl (centres undefined),11%,14%
CC(=O)c1cccc(-n2c(=O)c3c4c(sc3n(Cc3ccccc3Cl)c2=O)CN(C(C)=O)CC4)c1,-24%,-10%
COc1cccc(C(=O)N2c3nc(-c4ccco4)nn3C3(CCCCC3)[C@@H]3CCCC[C@@H]32)c1,-16%,12%
Cc1ccc(CNC(=O)CCc2cn(Cc3ccc(C)cc3)c3ccccc23)cc1,0%,-7%
CN1CCSc2ccc(C(=O)NCc3ccccc3F)cc21,80%[activator],120%[activator]
Cc1cccc(-c2nc3ccccc3c(=O)n2CCN(C)C)c1,11%,-6%
Fc1cccc(CSc2ncnc3nc[nH]c23)c1,0%,-16%

In another format: results already given.
> Cc1cccc(-c2nc3ccccc3c(=O)n2CCN(C)C)c1
  StopGo FLuc = 11%	StopGo RLuc = -6%

> Cc1ccc(CNC(=O)CCc2cn(Cc3ccc(C)cc3)c3ccccc23)cc1
  StopGo FLuc = 0%	StopGo RLuc = -7%

> COc1cccc(CNC(=O)c2ccc3c(c2)N(C)C(=O)C2CCCCN32)c1 (centres undefined)
  StopGo FLuc = 66%[activator]	StopGo RLuc = 101%[activator]

> Fc1cccc(CSc2ncnc3nc[nH]c23)c1
  StopGo FLuc = 0%	StopGo RLuc = -16%

(continued)
compound,StopGo FLuc,StopGo RLuc
O=C(CCc1cccs1)N1CCSCC1,18%,16%
CCC(=O)Nc1ccc(CC)cc1-c1nc2ccccc2n(CC(=O)c2ccc(OC)cc2)c1=O,-21%,20%
CCOC(=O)CNC(=O)c1cc2c(=O)n3cccc(C)c3nc2s1,35%[activator],30%[activator]
Cc1cc(C(=O)Cn2cnc3c2c(=O)n(C)c(=O)n3C)c(C)[nH]1,-2%,0%
O=C(NCCN1CCCCC1)c1nc(-c2cccc3[nH]ccc23)no1,1%,23%
Nc1nccnc1C(=O)NCc1ccccc1CN1CCCCC1,3%,-4%
C1=C(CCNCC2CCCCC2)CCCC1,21%,u
CC(=O)Nc1ccc(-c2nnc3n(Cc4ccc(C)cc4)c(=O)c4ccccc4n23)cc1,-8%,-4%
COc1cc2c(cc1OC)-c1c(c(C(=O)Nc3ccncc3)nn1-c1ccccc1F)C2,15%,13%
Nc1nc2c(s1)C(c1ccc(F)c(F)c1)CC(=O)N2 (centres undefined),12%,1%
COc1ccc(-c2ccnc3c2c(=O)[nH]c(=O)n3Cc2ccco2)cc1OC,17%,10%
CN(C)CCNc1oc(-c2cccc(Cl)c2)nc1C#N,10%,11%
CN(C)C(=O)Oc1ccc2c(=O)c(-c3ccc(Br)cc3)coc2c1,53%[activator],-9%
O=C(Nc1cc(C(F)(F)F)ccc1Cl)c1noc2c1CCCC2,14%,-2%
Cc1ccc(-c2nc3ccccc3o2)cc1NC(=O)Cc1ccc(Cl)cc1,-16%,-7%
CC(=O)c1c[nH]c(C(=O)NC(C)c2ccccc2F)c1 (centres undefined),0%,12%
COc1ccc(-c2nc3c(s2)CN(C(C(=O)O)c2c[nH]c4ccc(Br)cc24)CC3)cc1 (centres undefined),-10%,7%
CCSC1=NC2(CCN(C(=O)NC3CCCCC3)CC2)N=C1c1ccc(C)c(C)c1,-5%,8%
O=C(c1cccc(F)c1)N(Cc1cccs1)C1CC1,10%,27%
CCCCn1cnc2c1c(=O)[nH]c(=O)n2CCCC,1%,1%
CCc1ccc(NC(=O)CSc2nc(-c3ccccc3)no2)cc1,53%[activator],-3%
CCC1CN(C(=O)N2CCC(C(=O)N3CCN(c4ccccc4)CC3)CC2)c2ccccc2O1 (centres undefined),u,5%
CCCc1nn2c(=O)cc(COC(=O)c3cccs3)nc2s1,48%[activator],8%
CCCCN(CC)CCNC(=O)Cn1cc2c(n1)-c1c(oc(C(=O)N3CCCC3)c1C)CC2,-7%,-7%
COc1ccccc1N1CCN(C(CNC(=O)C(=O)NCCN(C)C)c2cccnc2)CC1 (centres undefined),-13%,-12%
O=C(Oc1ccc2ccccc2c1)C1(c2ccccc2)CC1,0%,-3%
COc1cccc(-n2c(SCC(=O)c3ccccc3)nc3c([nH]c4ccccc43)c2=O)c1,-10%,-14%
CCOCCCNC(=O)c1cc2c(=O)[nH]c3ccccc3c2n1C,4%,9%
CC(=O)Nc1ccc(S(=O)(=O)NC2=NCN(Cc3cccnc3)CN2)cc1,39%,20%
O=C(c1cc2ccccc2oc1=O)N1CCN(CCc2ccccc2)CC1,13%,-3%
CCOC(=O)Cc1ccc(NC(=O)NC(C)C(=O)N2CCc3ccccc32)cc1 (centres undefined),0%,4%
O=C(Nc1ccccc1)N(Cc1c[nH]c2ccccc12)C1CCCCCC1,69%[activator],1%
Nc1nc(Cl)ccc1[N+](=O)[O-],75%[activator],22%
CCOC(=O)c1ccc(-c2ccc(/C=C/C(=O)c3cccc(N4CCOCC4)c3)o2)cc1,u,u
O=Cc1c[nH]c2cccc(Cl)c12,4%,24%
Cc1cc(C)c(NC(=O)c2nn(C(C)C)c(=O)c3ccccc23)c(Cl)c1,5%,5%
C/C(=N\Nc1ccc(Br)cc1)c1ccc([N+](=O)[O-])cc1,101%[activator],-6%
Cc1cc2c(cc1NS(=O)(=O)c1ccc(F)cc1)n(C)c(=O)c(=O)n2C,-10%,1%
COc1ccc(OC)c(Nc2sc(C(=O)c3ccccc3)c(N)c2S(=O)(=O)c2ccccc2)c1,-11%,147%[activator]
Cc1ccc(-n2cnc3cc(C(=O)NCc4ccc(F)cc4)ccc32)c(C)c1,-16%,33%[activator]
Cc1ccc(NC(=O)COc2ccc3oc4c(c3c2)CCCC4)cc1C,-18%,-12%
CCOC(=O)N1CCN(Cc2nc3cc(NC(=O)c4ccc(C)cc4)ccc3n2C)CC1,u,u
CN(C)N1C(=O)CC(c2ccc(Cl)cc2Cl)C2=C1CC(C)(C)CC2=O (centres undefined),1%,8%
CCc1nn(CCCC(=O)N2CCN(c3ccc(OC)cc3)CC2)c(=O)c2cc3occc3n12,53%[activator],9%
COc1cc(C(=O)OCc2ccccc2F)cc(OC)c1Br,-1%,13%
CCN(CC)C(=O)C(Sc1n[nH]c(-c2ccccc2)n1)c1ccccc1 (centres undefined),-1%,43%[activator]
Cc1oc2ccc(O)c(CN3CCCC3)c2c1C(=O)Nc1cccc(Cl)c1C,-6%,2%
CNC(=O)c1ccc(-c2nc(CN3CCN(C(=O)Nc4ccccc4C(=O)OC)CC3)c(C)o2)cc1,11%,9%
CCCCn1nc(C(=O)Nc2cc(C)ccc2OC)c2ccccc2c1=O,3%,-1%
COc1ncccc1CNC(=O)c1ccc2c(c1)CCC(=O)N2,4%,-14%
Cc1ccc(CNC(=O)c2cc(C3CC3)nc3c2c(C)nn3-c2cccc(Cl)c2C)cc1,-18%,-17%
CC(C)(C)C1CCc2c(sc3nc(-c4cc5cc(Cl)ccc5oc4=O)[nH]c(=O)c23)C1 (centres undefined),-21%,-14%
CC(CC(=O)O)C(=O)c1ccc(Cl)cc1 (centres undefined),2%,-1%
CCOc1ccc(/C=C/c2nc(C#N)c(NCCN(C)C)o2)cc1,3%,-19%
CC(=O)c1ccc(NC(=O)c2cccc(NC(=O)N3CCSc4ncccc43)c2)cc1,3.2µM*,-9%
Cc1noc(C)c1COc1ccc(CC(=O)N2CCN(CC(=O)N3CCCC3)CC2)cc1,13%,-5%

Copied from the list:
For StopGo FLuc, CCOc1ccc(/C=C/c2nc(C#N)c(NCCN(C)C)o2)cc1 is entered as 3%
For StopGo RLuc, CC(C)(C)C1CCc2c(sc3nc(-c4cc5cc(Cl)ccc5oc4=O)[nH]c(=O)c23)C1 (centres undefined) is entered as -14%

Back to the main list, repeating the 2 entries before the break.
compound,StopGo FLuc,StopGo RLuc
CC(=O)c1ccc(NC(=O)c2cccc(NC(=O)N3CCSc4ncccc43)c2)cc1,3.2µM*,-9%
Cc1noc(C)c1COc1ccc(CC(=O)N2CCN(CC(=O)N3CCCC3)CC2)cc1,13%,-5%
CCCCC(=O)Nc1ccc(OCC)c2ncccc12,12%,2%
CCc1nn(CC(=O)N(C)Cc2ccccc2)c(=O)c2cc3sccc3n12,0%,-6%
Fc1ccc(N2CCN(c3ncnc4nc[nH]c34)CC2)cc1,-6%,u
FC(F)(F)c1nc2ccccc2n1Cc1nnc(-c2ccccc2Cl)o1,0%,-7%[1.06 µM]
CNC(CC(=O)O)C(=O)O (centres undefined),-5%,8%
Cc1cccc2sc(N(Cc3cccnc3)C(=O)c3cccs3)nc12,4%,-9%
NC(=O)c1ccccc1N=Cc1cccc(O)c1,0%,46%[activator]
Cc1ccc(-c2nc3cccc(C)n3c2Nc2ccc3c(c2)OCO3)o1,0%,30%
COc1ccc(CNC(=O)c2ccc3c(c2)NC(=O)C(CS(=O)(=O)Cc2ccccc2Cl)N3)cc1 (centres undefined),-6%,-14%
CC(=O)Nc1ccc(C)cc1S(=O)(=O)N1CCCC1c1cccs1 (centres undefined),1%,85%[activator]
CCc1nn2c(=O)cc(COC(=O)c3ccco3)nc2s1,7%,-2%
COc1ccc(Nc2cc(C)c3cc(NC(=O)COc4cccc(C)c4)ccc3n2)cc1,55%[activator],-4%
CCN(CC)S(=O)(=O)c1ccc(Oc2ccc3c(C)cc(=O)oc3c2)c([N+](=O)[O-])c1,7%,0%
O=C(Cn1cc(C(=O)c2ccco2)c2ccccc21)Nc1ccccc1Cl,5%,11%
Cc1ccc(NC(=O)Cn2cc(C(=O)C3CCCCC3)c3ccccc32)c(C)c1,-24%,-13%
COc1ccc(N(CC(=O)Nc2ccc(F)c(F)c2)S(=O)(=O)c2c(C)nn(C)c2C)cc1,-13%,68%[activator]
COc1ccc(OCC(=O)Nc2ccc3oc(-c4cccc(F)c4)nc3c2)cc1,141%[activator],1%
CC(NC(=O)c1ccc2c(c1)OCO2)c1ccc2c(c1)CCC(=O)N2 (centres undefined),8%,-9%
CC(CC(=O)O)CC(=O)N1CCOCC1 (centres undefined),7%,-4%
Cc1ccc(Cl)cc1N1CCN(C(=O)Cc2c(C(=O)O)c(C)cn2C)CC1,-19%,-25%
O=[N+]([O-])c1cnc(NS(=O)(=O)c2ccccc2[N+](=O)[O-])s1,55%[activator],u
